PKD1 inh: blocks activity of human protein kinase D1 | Q15139 | PKD1 kinase fluorescence polarization assay | inhibition, %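 (about 10 µM by stock and volumes)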 | 0.056% of 200,000 active;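 active = inhibition of 50% or more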;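 note: controls were vehicle for no effect and a reference inhibitor for full effect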
RGS16-Gao HTS: RGS16-Galphao interaction regulator (human) | 0.38% of 220,000 active | binding response (% of control), % at 10 µM | bead-based flow cytometry RGS16-Galphao binding, fluorescence; actives lie on both sides;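 active = below 25% or above 175%, edge rows of some plates excepted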;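 note: Galphao activated by GDP with aluminum fluoride before binding; 100% = wells without compound and 0% = beads without RGS; some results beyond the cut were filed as inactive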
Target sequence (O15492 whole entry, looked up): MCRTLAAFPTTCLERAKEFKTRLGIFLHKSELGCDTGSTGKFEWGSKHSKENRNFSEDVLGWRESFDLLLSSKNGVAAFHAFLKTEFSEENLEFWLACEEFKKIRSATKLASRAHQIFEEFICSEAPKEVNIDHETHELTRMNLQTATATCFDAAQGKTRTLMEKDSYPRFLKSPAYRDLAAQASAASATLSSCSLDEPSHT
Target sequence (P09471 whole entry, looked up): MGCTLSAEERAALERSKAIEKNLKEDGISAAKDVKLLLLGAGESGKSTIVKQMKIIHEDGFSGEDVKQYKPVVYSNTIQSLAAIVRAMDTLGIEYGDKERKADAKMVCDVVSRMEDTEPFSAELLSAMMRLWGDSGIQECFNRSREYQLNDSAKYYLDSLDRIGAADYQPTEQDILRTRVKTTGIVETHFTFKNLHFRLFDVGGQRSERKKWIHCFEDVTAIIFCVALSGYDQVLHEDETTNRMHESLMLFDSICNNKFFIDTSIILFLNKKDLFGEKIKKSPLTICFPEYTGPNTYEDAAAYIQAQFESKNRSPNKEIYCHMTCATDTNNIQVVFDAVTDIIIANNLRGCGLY
INS promoter inh: TRM-6 insulin promoter activity inhibition; inhibition, % at 2 µM; 0.9% of 130,000 active; TRM-6 cells (human fetal islet line), insulin promoter-eGFP reporter, imaging; reporter expression induced with tamoxifen;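 active = inhibition above the mean plus 3 SD, with well images judged a real hit on visual review, cut at about 60% in these data, passing the limit was not always enough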
GALR2 agonist: activates the human galanin receptor 2 | AID 803 | 0.48% of 140,000 active | O43603 | activation, %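 (tested at 5 µM)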 | GALR2-expressing cells, agonist activation read-out;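 active = above mean plus 3 SD of all compounds, about 5% in these data, not always enough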;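 note: 0% = vehicle buffer wells and 100% = reference agonist at full effect; tested in CHO reporter cells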
Target sequence (O43603 whole entry, looked up): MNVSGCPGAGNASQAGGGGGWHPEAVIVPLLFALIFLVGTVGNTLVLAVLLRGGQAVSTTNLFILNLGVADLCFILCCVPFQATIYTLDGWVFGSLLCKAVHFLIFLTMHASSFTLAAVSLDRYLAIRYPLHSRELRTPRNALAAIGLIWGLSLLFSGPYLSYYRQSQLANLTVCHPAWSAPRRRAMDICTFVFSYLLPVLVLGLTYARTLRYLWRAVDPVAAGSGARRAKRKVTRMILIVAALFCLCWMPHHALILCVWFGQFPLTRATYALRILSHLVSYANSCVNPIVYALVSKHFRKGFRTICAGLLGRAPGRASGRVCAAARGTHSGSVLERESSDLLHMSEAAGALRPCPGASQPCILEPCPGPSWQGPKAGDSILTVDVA
HSV augment: increases HSV replication in cells. HSV replication augmentation in cells, fold increase. maximum fold increase. 0.005% of 220,000 active. AID 1956;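 active = peak rise of 1.5-fold or more in the series; tested in PC3 cells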;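 note: first round at 10 µM; read as green reporter fluorescence; hits show the peak of a series up to 25 µM; 1 = signal of infected wells without compound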
INS promoter inh cell count: recorded beside INS promoter inh, whose call it bears; normalized cell count, %; measured here: cell count, toxicity; reference of the scale not given here;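 cells exposed to compound for 48 h; stained nuclei by imaging scaled within each plate; lower means fewer cells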
HSV augment primary fold: second read-out of HSV augment, no call of its own (marks repeat the call); fold increase; compound at 10 µM; measured here: primary screen fold increase 10 uM; tested in PC3 cells;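 GFP signal in the first replicate; 1 = infected wells without compound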
Numbers without * were called inactive; i = inactive; nt = no result given.

canonical_smiles,PKD1 inh,RGS16-Gao HTS,INS promoter inh,INS promoter inh cell count,GALR2 agonist,HSV augment,HSV augment primary fold
Cc1ccc(-c2csc(N(CCc3ccccc3)C(=O)COc3ccccc3)n2)cc1,11.2,101.4,-20.8,71.6,-1.9,i,0.89
CC1CCCN(c2nc(NCc3ccco3)nc(N)c2[N+](=O)[O-])C1 (stereo not given),32.1,105.0,nt,nt,-0.1,i,0.93
CCOC(=O)Cc1csc(NC(=O)c2ccc(C)o2)n1,-1.4,101.9,27.6,126.6,-2.1,i,0.86
Cn1cccc1C(=O)C(=O)Nc1cccc(Cl)c1Cl,6.9,107.4,-13.5,152.8,-2.3,i,0.91
COc1ccc2[nH]c3c(=O)n(CCCCC(=O)N4CCCC4)c(=S)[nH]c3c2c1,-0.5,105.9,nt,nt,0.3,i,0.95
CC(C)(C)C1CCC(=NNC(=O)CN(c2ccccc2)S(C)(=O)=O)CC1 (stereo not given),4.8,82.8,-23.3,81.7,-1.5,i,0.89
COc1ccc(-c2nc(C(N)=O)c3[nH]c(=O)n(-c4cccc(Cl)c4)c3n2)cc1OC,2.0,83.7,-110.0,64.6,-0.2,nt,nt
CCCC(=O)Nc1cc(-c2nn(C)c(=O)c3ccccc23)ccc1N1CCOCC1,0.3,106.0,-3.6,198.9,-1.4,i,1
CC(=O)C1=C(C)NC(=O)NC1c1ccc(OC2CCCC2)cc1 (stereo not given),-5.9,100.9,33.3,62.7,0.1,i,0.97
COC(=O)Cc1ccc(O)c(N)c1,1.9,98.5,5.6,105.4,nt,i,1.1
CC(C)c1ccc(CNc2ccc(N3CCOCC3)cc2)cc1,-6.8,99.6,-8.1,110.8,-2.4,i,0.91
Cn1ncc(N=Cc2ccccc2)c1C(=O)Nc1cccc(Cl)c1,-11.9,107.2,5.1,45.8,-0.6,nt,nt
Cc1ccc(NC(=O)CSC2=Nc3ccccc3C3CC=NN23)c(C)c1 (stereo not given),3.4,58.4,32.4,69.5,-0.8,i,0.95
COc1cc(NC(=O)c2ccc(CNc3c(N4CCOCC4)c(=O)c3=O)cc2)cc(OC)c1,7.3,107.0,nt,nt,-2.9,i,0.99
O=C(c1cccnc1)n1nc(-c2ccco2)nc1NCc1cccs1,10.8,101.5,48.8,62.4,nt,i,1.07
O=C(NC1CCN(Cc2ccccc2)CC1)C1CCN(S(=O)(=O)c2cccc3cccnc23)CC1,-19.8,nt,nt,nt,-1.3,i,0.94
Cc1nc(NC(C)C)c2cnn(CCc3ccccc3)c2n1,-3.1,96.6,37.8,110.3,-1.6,i,0.963
CCSc1nnc(Cc2cc(=O)[nH]c(=O)[nH]2)n1-c1cccc(C)c1,nt,103.8,nt,nt,nt,i,0.73
O=C(NCCCNC(=O)c1ccccn1)c1ccccn1,-4.2,102.4,nt,nt,-1.3,i,1.05
CC(C)(C)C(=O)NNC(=O)c1ccc(Oc2cc(Cl)cc(Cl)c2)o1,nt,105.9,nt,nt,nt,i,0.79

Compound profiles (already shown). Values in the order: PKD1 inh	RGS16-Gao HTS	INS promoter inh	INS promoter inh cell count	GALR2 agonist	HSV augment	HSV augment primary fold
CCOC(=O)Cc1csc(NC(=O)c2ccc(C)o2)n1 in the list: -1.4	101.9	27.6	126.6	-2.1	i	0.86
Cc1ccc(NC(=O)CSC2=Nc3ccccc3C3CC=NN23)c(C)c1 (stereo not given) in the list: 3.4	58.4	32.4	69.5	-0.8	i	0.95
COc1cc(NC(=O)c2ccc(CNc3c(N4CCOCC4)c(=O)c3=O)cc2)cc(OC)c1 in the list: 7.3	107.0	nt	nt	-2.9	i	0.99
CC(C)(C)C1CCC(=NNC(=O)CN(c2ccccc2)S(C)(=O)=O)CC1 (stereo not given) in the list: 4.8	82.8	-23.3	81.7	-1.5	i	0.89
COc1ccc2[nH]c3c(=O)n(CCCCC(=O)N4CCCC4)c(=S)[nH]c3c2c1 in the list: -0.5	105.9	nt	nt	0.3	i	0.95

3 entries from above, sorted by molecular weight, smallest number first:
canonical_smiles,PKD1 inh,RGS16-Gao HTS,INS promoter inh,INS promoter inh cell count,GALR2 agonist,HSV augment,HSV augment primary fold
CCOC(=O)Cc1csc(NC(=O)c2ccc(C)o2)n1,-1.4,101.9,27.6,126.6,-2.1,i,0.86
CC(C)c1ccc(CNc2ccc(N3CCOCC3)cc2)cc1,-6.8,99.6,-8.1,110.8,-2.4,i,0.91
CCCC(=O)Nc1cc(-c2nn(C)c(=O)c3ccccc23)ccc1N1CCOCC1,0.3,106.0,-3.6,198.9,-1.4,i,1

Next section.
canonical_smiles,PKD1 inh,RGS16-Gao HTS,INS promoter inh,INS promoter inh cell count,GALR2 agonist,HSV augment,HSV augment primary fold
COC(=O)C1=C(C)NC2=C(C(=O)CCC2)C1c1ccsc1 (stereo not given),-3.0,98.3,nt,nt,-0.5,i,1.04
C/C(=C\c1ccco1)C1Nc2cccc3cccc(c23)N1,-11.0,79.2,-10.0,97.5,-0.1,i,0.95
O=C(c1ccco1)N(c1ccccn1)c1ccccn1,-21.3,103.5,nt,nt,-2.0,i,1.01
CN(C)S(=O)(=O)N1CCN(S(=O)(=O)N2CCOCC2)CC1,-6.2,107.2,16.7,102.2,nt,i,0.95
O=C(NCc1cccs1)C1CCCN1C(=O)Nc1cccc(F)c1 (stereo not given),8.5,102.5,nt,nt,nt,i,0.83
Cc1cc(NS(=O)(=O)c2ccc(NC(=O)C(C)Oc3ccc4c(C)cc(=O)oc4c3)cc2)no1 (stereo not given),-6.1,101.7,62.5,157.4,-2.2,i,1.05
CC(=O)Nc1cccc(NC(=O)CSc2ccc3nnc(CCNC(=O)c4ccccc4)n3n2)c1,4.7,102.1,33.3,105.5,nt,i,0.96
CCOC(=O)c1ccccc1NC(=O)c1cn(-c2ccc(C)c(C)c2)c(=O)c2ccccc12,-6.9,98.7,-8.0,140.6,0.1,i,0.83
Cc1cc(C)c(NC(=O)Cc2ccc(-n3cccc3)cc2)c(C)c1,-2.7,78.4,-3.3,127.1,2.2,i,1.03
O=S(=O)(c1ccccc1F)N1CCN(c2nc3ccccc3s2)CC1,-1.4,91.6,nt,nt,nt,i,0.74
CCc1nc2sc3ccccc3c(=O)c2c(=O)n1CCOC,-9.8,92.9,25.8,64.2,-1.0,i,0.81
O=C(NCCN1CCOCC1)c1cc(-c2ccc(Br)cc2)on1,-9.2,103.3,-25.0,55.8,-1.4,i,0.92
CCOc1ccc(NC(=S)NCc2nc3ccccc3[nH]2)cc1,-6.2,104.2,5.0,144.0,nt,i,1.22
N#Cc1c(N)n[nH]c1CCCN,9.2,103.3,40.0,124.9,-0.4,i,0.86
O=C(NCC1(c2ccccc2)CCCC1)c1ccc(Br)o1,1.1,16.6,9.1,98.3,-0.7,i,1.05
CC1=C(C(=O)OC(C)C)C(c2cccs2)N2C(=O)C(C)SC2=N1 (stereo not given),-12.1,119.4,33.3,110.8,-2.2,i,0.95
Cc1ccc(Cn2nc(C)c3cc(C(=O)OCC(N)=O)sc32)cc1,2.3,93.8,6.2,82.1,-1.1,i,0.967
O=C(CN1CCN(Cc2ccccc2)CC1)N1CCCc2c1c(=O)oc1ccc(O)cc21,18.5,106.6,-16.7,76.4,0.4,nt,nt
S=C(Nc1ccccc1)Nc1ccc(OCc2ccccc2)cc1,-9.8,98.4,7.1,68.7,-1.5,i,0.92
CCS(=O)(=O)NCCNc1ccc([N+](=O)[O-])cc1,-0.5,97.0,nt,nt,nt,i,1.07

4 compounds already listed, ordered by the value under PKD1 inh, rising.
| SMILES | PKD1 inh |
| --- | --- |
| Cn1ncc(N=Cc2ccccc2)c1C(=O)Nc1cccc(Cl)c1 | -11.9 |
| O=C(NCCCNC(=O)c1ccccn1)c1ccccn1 | -4.2 |
| COC(=O)C1=C(C)NC2=C(C(=O)CCC2)C1c1ccsc1 (stereo not given) | -3.0 |
| CCOC(=O)Cc1csc(NC(=O)c2ccc(C)o2)n1 | -1.4 |

(further entries)
Each structure is followed by: PKD1 inh	RGS16-Gao HTS	INS promoter inh	INS promoter inh cell count	GALR2 agonist	HSV augment	HSV augment primary fold
- COc1ccc(OC)c(-n2c(-c3ccc(C)cc3)n[nH]c2=S)c1
    -4.3	100.1	28.2	83.1	-0.8	i	0.87
- COc1ccc(C2=CSC3=NNC4(CCCCC4)NN23)cc1
    -3.5	110.2	-8.3	69.1	nt	i	0.99
- O=C(O)c1cccc(NC2=Nc3cccc4cccc2c34)c1
    nt	105.3	nt	nt	nt	i	1.08
- O=c1c2ccsc2ncn1Cc1ccccc1F
    -4.4	105.8	-9.7	150.7	-0.6	i	0.93
- COc1ccccc1N(C)S(=O)(=O)c1ccc(C(=O)Nc2nc(C)cs2)cc1
    -4.2	104.4	-23.5	116.3	nt	i	0.83
- COCCn1c(SCC(=O)Nc2cc(C)on2)nnc1-c1c[nH]c2ccccc12
    -1.1	97.8	nt	nt	-2.7	i	1.01
- COC(=O)Cn1cnc2sc(C)c(S(=O)(=O)N3CCC(C)CC3)c2c1=O
    0.4	107.8	-10.9	107.7	-4.8	i	0.89
- CCCC[C@@H]1C[C@H]1[C@@H](NC(=O)c1ccco1)c1ccc(Cl)cc1
    -16.5	101.2	18.2	120.3	-1.6	i	0.82
- CS(=O)(=O)Nc1ccc(C2=NN(C(=O)c3ccco3)C(c3cccc(F)c3)C2)cc1 (stereo not given)
    5.6	97.8	-5.0	50.7	nt	i	0.91
- COc1cc(CNCCO)cc(Br)c1OCc1ccccc1Cl
    -12.0	94.0	19.2	97.3	-0.5	nt	nt
- O=c1c(Cc2c(F)cccc2Cl)c(O)ccn1Cc1ccc(F)cc1
    2.4	102.1	nt	nt	nt	i	0.9
- CC(C)CCN1CC(O)=C(c2nc3ccccc3[nH]2)C1=N
    -5.6	107.3	14.3	75.0	0.1	i	0.99
- Cc1c(C(=O)NCCCn2ccnc2)oc2ccccc12
    -4.0	103.3	-59.0	145.8	nt	i	0.88
- CCC(C)c1c(O)nc(SCC(=O)Nc2ccccc2)[nH]c1=O (stereo not given)
    -0.1	100.9	2.9	137.4	-0.9	i	0.74
- O=C1CC(=O)C(n2cncn2)C(c2ccc(Cl)cc2)C1 (stereo not given)
    2.3	99.9	-18.2	62.5	-0.5	i	0.97
- COc1ccc(S(=O)(=O)N2CCOCC2)cc1NC(=O)c1cc2c(s1)CCCC2
    11.2	71.7	nt	nt	0.5	i	1.01
- CC(=O)Nc1ccc(CN2CCCC(C(=O)c3cccc(C(F)(F)F)c3)C2)cc1 (stereo not given)
    0.4	102.3	nt	nt	nt	i	0.92
- Cc1cccc(NC(=O)CN2C(=O)S/C(=C\c3ccc(O)c([N+](=O)[O-])c3)C2=O)c1
    -1.8	100.7	-8.3	114.6	nt	i	0.86
- CC(NS(C)(=O)=O)C(c1cccs1)N1CCN(c2ccccc2F)CC1 (stereo not given)
    -8.1	109.0	5.6	103.5	-1.5	i	1.07
- COc1cccc(NC(=S)NCc2cccs2)c1
    -3.2	111.8	30.0	73.5	-1.4	i	0.91
- Cc1ccc(C(=S)N2CCN(Cc3ccccc3)CC2)s1
    -5.2	96.9	-66.7	52.0	nt	i	0.99
- Cc1nn(C(=O)N2CCOCC2)c(C)c1CN1C(=O)c2ccccc2C1=O
    -5.5	nt	9.3	78.3	-3.0	i	0.84
- CCCCC(=O)N1CCCC(C)C1 (stereo not given)
    nt	107.7	nt	nt	nt	i	1.05
- Cc1ccc(S(=O)c2ccc(C)cc2)cc1
    -7.8	123.4	nt	nt	-0.5	i	1.05

High-throughput results: PubChem, several laboratories
